# Source: PubChem
# LANA-nucl inh = inhibitors of KSHV LANA-nucleosome binding, primary screen, biochemical, fluorescence polarization, FITC-LANA1-23, chicken nucleosomes. FITC-LANA1-23 / chicken nucleosome fluorescence polarization; stronger effect = lower value. actives 0.3% (n = 51,000). z-score (concentration not given with the values). AID 720717, 2013;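 active = both repeat wells score below -2 in polarization z-score versus plate sample wells, excluding overly bright wells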;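 also: 100 nL library stock added to about 30 µL; numbers are from one replicate; some results filed as inactive read as strong as hits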
#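 Assay system: FITC-LANA peptide and chicken nucleosomes; input: 240 nM purified chicken nucleosomes (480 nM peptide binding sites), final; also added: 50 nM FITC-LANA1-23 probe; medium: TEN-BT buffer, pH 7.5; doses: pin-transferred compound, 100 nL; times: 10–45 min, room temperature; technique: fluorescence polarization; replication: duplicates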
# Ab BasE inh = BasE siderophore enzyme inhibitors, primary screen, biochemical, Acinetobacter baumannii ATCC 17978, fluorescence polarization. purified BasE, fluorescence polarization binding displacement. inhibition, % (concentration not given with the values). actives 0.1% (n = 84,000). AID 485350, 2010;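 active = both replicates above 25% with normal brightness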;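 also: 0% = negative plate control signal and 100% = positive plate control signal; stock transfer was 100 nL into about 30 µL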
# The depositor's hits bear a star; / = no result given.
SMILES,LANA-nucl inh,Ab BasE inh
C/C(=N\NC(N)=O)c1ccc(C#N)cc1,/,2.4
CC(C)(CNC(=O)c1ccc2nc[nH]c2c1)N1CCOCC1,/,0.6
NNC(=O)c1nnn(-c2nonc2N)c1CN1CCCC1,-0.927,2.6
N#CCS(=O)c1ccccc1 (stereo not given),/,1.0
COC(=O)C1=C(C)NC(=O)CC1c1ccccc1I (stereo not given),/,-0.5
CCC1(CC)Cc2ccccc2-c2[nH]c(=S)n(Cc3ccccc3)c(=O)c21,/,1.4
O=C(Nc1ccc2nc3n(c(=O)c2c1)CCCC3)C1COc2ccccc2O1 (stereo not given),-0.753,-1.8
CCOc1ccc(N=C2SCCCN2C(=O)C2=CC=CN3CCS(=O)(=O)N=C23)cc1,/,-1.2
O=C1CNC(=S)N1Cc1ccccc1Cl,/,-2.2
O=C(c1cccs1)N1CC=C(c2ccccc2)CC1,/,-3.1
COc1ccc(CC(=O)NC2CC2)cc1OC,-0.544,-1.5
CCc1cccc(N(c2nc(-c3ccc(OC)c(OC)c3)no2)c2nc(-c3ccc(OC)c(OC)c3)no2)c1,2.82,-1.3
CCOC(=O)N1CCN(c2ccnc3cc(Cl)ccc23)CC1,/,-1.2
O=C(ON1C(=O)c2ccccc2C1=O)c1ccc(F)cc1,-0.223,2.0
Cc1ccc(S(=O)(=O)CCSc2nccc(-c3cccs3)n2)cc1,/,1.8

# Compound profiles, as listed above. Screens in order: LANA-nucl inh | Ab BasE inh
# Listed for NNC(=O)c1nnn(-c2nonc2N)c1CN1CCCC1 = -0.927 | 2.6
# Listed for O=C(Nc1ccc2nc3n(c(=O)c2c1)CCCC3)C1COc2ccccc2O1 (stereo not given) = -0.753 | -1.8
# Listed for N#CCS(=O)c1ccccc1 (stereo not given) = / | 1.0

# (further entries)
SMILES,LANA-nucl inh,Ab BasE inh
CNC(=O)c1ccc(N2CCOc3ccc(Cl)cc32)s1,1.58,-0.3
Nc1ccnn1-c1ccccc1,0.144,1.4
c1n[nH]c2c1CNCC2,-0.464,0.4
CCc1ccccc1Nc1nc(N)nc(COC(=O)Cn2cc(C(F)(F)F)ccc2=O)n1,/,0.4
CC(C)CNC(=O)c1ccc(CSc2ncn[nH]2)cc1,/,-1.7
CCN(CC)C(=O)c1c(C)oc2ncn(CC(C)C)c(=O)c12,/,-1.2
O=C1c2ccccc2OCC1(CO)CO,-0.845,/
O=S(=O)(N1CCCCC1)N1CCN(CC(O)COc2ccc3cc(Br)ccc3c2)CC1 (stereo not given),-0.946,1.8
O=C(Cc1c[nH]c2ccccc12)Nc1cccc(-n2cnnn2)c1,/,-2.6
Cc1ccc2oc(=O)c3cnn(CC(=O)N4CCC(C)CC4)c3c2c1,-0.758,-0.5
CC(C(=O)N(C)Cc1ccccc1)N1CCN(S(=O)(=O)c2ccccc2C(F)(F)F)CC1 (stereo not given),/,-5.9
O=S(=O)(NCC1CCCO1)c1ccc(Br)s1 (stereo not given),0.286,-1.2
N#Cc1c(NC(=O)CON2C(=O)CCC2=O)sc2c1CCCC2,-0.0065,0.4
O=C(Cn1c(=O)n(Cc2ccco2)c(=O)c2oc3ccccc3c21)NCc1ccccc1,0.727,0.1
Brc1ccc(CN2CCC(N3CCCCC3)CC2)cc1,-0.173,-0.7

# As a short view, seven of the compounds above:
SMILES,LANA-nucl inh,Ab BasE inh
CNC(=O)c1ccc(N2CCOc3ccc(Cl)cc32)s1,1.58,-0.3
Nc1ccnn1-c1ccccc1,0.144,1.4
c1n[nH]c2c1CNCC2,-0.464,0.4
CCc1ccccc1Nc1nc(N)nc(COC(=O)Cn2cc(C(F)(F)F)ccc2=O)n1,/,0.4
CC(C)CNC(=O)c1ccc(CSc2ncn[nH]2)cc1,/,-1.7
CCN(CC)C(=O)c1c(C)oc2ncn(CC(C)C)c(=O)c12,/,-1.2
O=C1c2ccccc2OCC1(CO)CO,-0.845,/

# Structures shown so far containing a cyano group, in the order listed:
SMILES,LANA-nucl inh,Ab BasE inh
C/C(=N\NC(N)=O)c1ccc(C#N)cc1,/,2.4
N#CCS(=O)c1ccccc1 (stereo not given),/,1.0
N#Cc1c(NC(=O)CON2C(=O)CCC2=O)sc2c1CCCC2,-0.0065,0.4

# New compounds follow
SMILES,LANA-nucl inh,Ab BasE inh
CCOc1ccc(S(=O)(=O)NCc2cn3ccccc3n2)cc1,0.927,1.6
COc1ccc(S(=O)(=O)SC)cc1N,/,1.7
COC(=O)C(C)Nc1ncnc2onc(C)c12 (stereo not given),/,1.2
COc1ccc(CCN(C)c2nnnn2-c2ccccc2)cc1OC,/,4.2
CN(C)C(=O)COc1ccccc1C(=O)O,/,-0.2
O=C(c1cc2cc(Br)ccc2oc1=O)N1CCOCC1,/,0.2
O=C(CSC1=NNC(c2ccccn2)S1)Nc1cccc(Cl)c1 (stereo not given),-2.13*,1.8
O=c1[nH]c2ccccc2n1CCCSc1cc(C(F)(F)F)c2cc3c(cc2n1)OCO3,-0.424,2.7
Cc1ccc(CCNC(=O)c2ccc3nc(-c4ccco4)c(-c4ccco4)nc3c2)cc1,-0.774,0.1
O=S(=O)(c1cccs1)N(c1cccc(F)c1)S(=O)(=O)c1cccs1,/,-0.2
O=c1nc2n(c3sc4c(c13)CCCC4)Cc1ccccc1C2,/,43.5
COc1ccc(N/N=C(\C#N)C(=O)Nc2ccc(C)c(C)c2)cc1,/,4.3
CC(C)Cn1cc(C(=O)N2CCN(Cc3ccc4c(c3)OCO4)CC2)c2c3ccccc3n(C)c2c1=O,-1.08,1.6
CCOc1ccc(SCC(=O)O)cc1,/,0.3
N#CC1(C#N)C(C(=O)c2ccc(F)cc2)C12CCSCC2 (stereo not given),-0.346,0.3
OCCNc1nc2ccccc2nc1-c1ccccc1,-0.841,-1.0
CC(NC(=O)c1cccc(S(C)(=O)=O)c1)c1ccc2c(c1)OCCO2 (stereo not given),/,-1.1
Cc1ccc2oc(=O)c3cnn(CC(=O)N(CC(C)C)CC(C)C)c3c2c1,-0.633,-0.1
N#Cc1cccc(NC(=O)c2ccc3ncsc3c2)c1,/,-1.6
CC1CC(C)CN(c2nc3c(c(=O)[nH]c(=O)n3C)n2Cc2ccccc2F)C1 (stereo not given),0.262,-0.4
Cc1onc(-c2ccccc2)c1C(=O)NNc1ccccc1C(F)(F)F,0.559,-1.6
C/C(=N/NC(=S)Nc1ccccc1)c1ccc2c(c1)OCO2,0.078,1.1
O=C(Cc1cc(=O)[nH][nH]1)N/N=C/c1cccc(Cl)c1Cl,0.583,3.9
O=C1NCCC/C1=N/Nc1ccccc1,0.0145,-0.1
COc1ccc(/C=C/C(=O)O)cc1S(=O)(=O)N(C)CCO,/,-1.5
CCN(CC)C(=O)c1ccccc1NC(=O)Cc1ccccc1,-0.336,1.5
C=C(C)c1cccc(C(C)(C)NC(=O)Nc2ccc(OC)nc2)c1,/,9.0
C/C(CCn1c(=O)sc2ccccc21)=N\NC(N)=S,-0.475,1.9
CCC(C)N(C(=O)/C=C/c1cccs1)C(C)CC (stereo not given),-0.959,0.6
Cc1nn(CCC#N)c2c1P(=Nc1ccccc1Cl)(N1CCOCC1)N(C)C(c1ccccc1F)=N2 (stereo not given),/,-0.1
Cc1nnsc1C(=O)N1CCC(C(F)(F)F)CC1,-2.15,-1.4
CN(CC(=O)N1CCCCC1)c1nnc(N2CCCC2=O)s1,0.0245,1.5
Cc1ccccc1-n1c(N)cc(=O)n(Cc2cccs2)c1=O,0.613,1.5
Cc1ccc(-c2cc(C(=O)N/N=C/C=C/c3ccccc3)n[nH]2)o1,-0.209,1.5
CC1N(C(=O)N(C)C)CCN1S(=O)(=O)c1ccccc1 (stereo not given),-0.439,1.1
N#C/C(=C\c1ccc2c(c1)OCO2)c1ccccc1,0.816,-0.3
O=C(CSc1ncc(-c2ccc(Br)cc2)[nH]1)N1CCOCC1,/,-2.5
CCN(CC)c1ccc(C(=O)OCC(=O)c2ccco2)cc1,/,2.4
CCn1c(=O)c2cc(C(=O)N3CCN(C(=O)c4ccco4)CC3)sc2c2ccccc21,0.418,-3.5
Cc1cccc(N(C)C(=O)CCn2ccc(C)n2)c1,-0.873,-0.5
Cc1nnc(NC2CC2)c2c1nnn2Cc1ccc(F)cc1,0.653,-5.1
COc1cc2nc(NC(=O)c3cccs3)sc(=O)c2cc1OC,2.95,1.3
O=C1CCC(=O)N1CC(=O)N1N=C(c2ccc(Cl)cc2)CC1c1ccco1 (stereo not given),/,-4.2
COc1ccc(C2CC(=O)N(c3ccccc3)C3=C2C(=O)OC3)cc1OC (stereo not given),1.6,-3.4
O=C(O)c1ccc(-c2ccc(Br)cc2)cc1,/,3.3
COc1ccccc1N(CC(=O)NCc1ccco1)S(C)(=O)=O,/,-2.2
COc1ccc(CNC(=O)CCC2CCCC2)cc1OC,/,-4.8
Cc1ccc(-n2nnc(C(=O)NCC3CCCO3)c2N)cc1F (stereo not given),-0.161,-2.7

# The list is partial; count on the stated rates, not on these rows.
